Screening data deposited in PubChem BioAssay by National Center for Advancing Translational Sciences (NCATS).
Marburg entry inh: blocks Marburg virus binding to or entry into cells; AID 540276; 300,000 compounds, 1.8% hits; Marburg virus pseudotyped entry inhibition, cell reporter; control for the full effect not named in the record; about a third of the inactives were read at about 46 µM; Potency, µM (highest dose often 37.8 µM), for the others: top-dose activity change, negative = inhibition, usual class: inhibitors; active = well fitted inhibition curve with a large enough effect; inconclusive = small, poorly fitted or top-dose-only effect, or effect the other way; inactive = flat fitted curve, though single readings scatter; tested in HEK293 cells; about a fifth of its hits are not listed in these tables; further: on the % scale 0 is the no-effect control and ±100 the full control effect; luciferase read-out
NS1 inh: blocks influenza NS1 protein function; S. cerevisiae slowed by influenza A NS1, growth recovery by OD600; Potency, µM (series often up to 46.1 µM), without a hit: at the top dose activity, positive = more growth; 270,000 compounds, 0.4% hits; AID 2326; active means well fitted rising curve with a large enough effect; inconclusive means small, poorly fitted or top-dose-only effect; inactive means no such curve, though single readings can be large or run the other way; further: nearly all actives have a fitted effect of over 50% in size
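Read-out: OD600 growth recovery of NS1-expressing budding yeast. Cells grown overnight at 30C in -URA glucose medium, washed, resuspended and diluted 1:100 in 2% galactose assay medium, pH 6.0. Same strain lacking NS1 served as positive control.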
Lassa entry inh: blocks Lassa virus binding to or entry into cells; Lassa virus pseudotype entry inhibition, cell reporter; control for the full effect not named in the record; Potency, µM (doses to about 37.9 µM), without a hit: at the top dose activity change, negative = inhibition, most hits filed as inhibitors; 300,000 compounds, 1.2% hits; active means well fitted inhibition curve with a large enough effect; inconclusive means small, poorly fitted or top-dose-only effect, or effect the other way; inactive means flat fitted curve, though single readings scatter; tested in HEK293 cells; further: on the % scale 0 is the no-effect control and ±100 the full control effect; nearly all actives have a fitted effect of over 50% in size; luciferase read-out
SARS PLP yeast: blocks SARS-CoV papain-like protease in a yeast assay; AID 485353; 330,000 compounds, 0.19% hits; Potency, µM (highest dose often 32.9 µM), inactives show top-dose activity, positive = growth rescue; S. cerevisiae expressing SARS-CoV PLpro, growth rescue; control for the full effect not named in the record; active means well fitted rising curve with a large enough effect; inconclusive means small, poorly fitted or top-dose-only effect; inactive means no such curve, though single readings can be large or run the other way; further: 0% is about no effect; nearly all actives have a fitted effect of over 55% in size; growth read by luminescence after 48 h
RE007 growth inh: less growth of the S. pombe RE007 Vpr strain; AID 651644; 360,000 compounds, 0.21% hits; S. pombe RE007 Vpr strain, BacTiter-Glo ATP luminescence, 24 h; control for the full effect not named in the record; Potency, µM (highest dose often 92.2 µM), inactives show top-dose activity change, negative = less growth; active = well fitted falling curve with a large enough effect; inconclusive = small, poorly fitted or top-dose-only effect; inactive = no such curve, though single readings can be large or run the other way;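 further: on the % scale 0 is the no-effect control and ±100 the full control effect; nearly all actives have a fitted effect of over 50% in size; the assay follows cell death caused by Vpr and the record does not say whether a fall means rescue or toxicity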
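Fission yeast RE007 carrying one integrated HIV-1 vpr copy, seeded at OD 0.01 in PMG+AL medium with 23 nL pinned compound. Grown 24 h at 30 degrees; viability read by BacTiter-Glo luminescence after 5 min.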
Cruzain Triton: inhibitors of Trypanosoma cruzi cruzain with detergent; purified cruzain, Z-FR-AMC fluorescence, 0.01% Triton; P25779; Potency, µM, for inactives: max response, negative = inhibition, most hits filed as inhibitors; 200,000 compounds, 0.43% hits; AID 1478;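 further: plate controls were neutral wells for no effect and buffer without enzyme for full effect; nearly all actives have a fitted effect of over 40% in size; top concentration of the series not given in the record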
Target sequence (P25779 123-467 limits assumed): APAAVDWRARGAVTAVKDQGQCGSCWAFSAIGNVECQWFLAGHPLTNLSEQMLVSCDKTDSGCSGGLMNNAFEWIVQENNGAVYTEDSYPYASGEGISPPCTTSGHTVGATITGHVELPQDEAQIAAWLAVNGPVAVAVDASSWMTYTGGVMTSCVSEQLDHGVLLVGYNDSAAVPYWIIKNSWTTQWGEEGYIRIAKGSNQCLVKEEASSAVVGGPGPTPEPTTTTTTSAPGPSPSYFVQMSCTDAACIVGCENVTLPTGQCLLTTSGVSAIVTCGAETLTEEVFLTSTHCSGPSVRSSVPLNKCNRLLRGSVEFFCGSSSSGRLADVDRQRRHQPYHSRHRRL
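15 min RT preincubation of 1.5 nM cruzain with compound, then 2 uM Z-FR-AMC added; kinetic AMC fluorescence, 60 s delta. Triton X-100 0.01%, pH 5.5.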
Cruzain inh noDet: cruzain (T. cruzi) inhibition without detergent; P25779; 200,000 compounds, 2.3% hits; purified cruzain, Z-FR-AMC fluorescence, no detergent; Potency, µM, without a hit: max response, negative = inhibition, usual class: inhibitors;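 further: plate controls were enzyme without inhibitor for no effect and buffer without enzyme for full effect; nearly all actives have a fitted effect of over 40% in size; top concentration of the series not given in the record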
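Detergent-free condition (0.00005% Triton X-100) in acetate buffer pH 5.5 with DTT. 1.5 nM enzyme and compound were pre-mixed 15 min, then 2 uM Z-FR-AMC substrate added; reaction progress from fluorescence change between first and third reads (60 s).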
2A StopGo: lowers the luciferase signal of an FMDV 2A StopGo reporter; human cells with a luciferase reporter of 2A StopGo recoding; control for the full effect not named in the record; Potency, µM (top dose mostly 57.9 µM), without a hit: at the highest dose signal change, negative = less light; 410,000 compounds, 1.2% hits; AID 1159524; active = well fitted falling curve with a large enough effect; inconclusive = small, poorly fitted or top-dose-only effect; inactive = no such curve, though single readings can be large or run the other way; tested in HEK293T cells; further: on the % scale 0 is the no-effect control and ±100 the full control effect; nearly all actives have a fitted effect of over 45% in size; luciferase light after 4 h
Numbers without * were called inactive; ? = inconclusive; . = not tested or not shown; & = joins results of further samples; [ ] = dose if it differs, or a comment. Unless noted, the call rests on the fitted dose curve; in most records, active means well fitted curve in the direction sought with a large enough effect; inconclusive means small, poorly fitted or top-dose-only effect, or another doubt; inactive means no such curve, though single readings can be large; an effect the other way counts as inactive or inconclusive. Potency means the concentration at half of the fitted maximal effect.

SMILES	Marburg entry inh	NS1 inh	Lassa entry inh	SARS PLP yeast	RE007 growth inh	Cruzain Triton	Cruzain inh noDet	2A StopGo
CC1CCCCN1S(=O)(=O)c1coc(C(N)=O)c1 (stereo not given)	.	9%	.	8%	4%	2.7%	-4%	5%
O=C(Cn1ncc(Cl)c(Cl)c1=O)NC(=O)NC1CCCCC1	11µM*	.	?	-1%	-7%	.	.	35µM*
Cc1ccc(-c2onc(C)c2C)cc1S(=O)(=O)Nc1cccc(Cl)c1C	.	.	?	.	.	-5.4%	14%	4%
CN(C(=O)COC(=O)c1cccnc1Cl)C1CCCCC1	9%	.	22%	7%	1%	.	.	64%[activator]
Cc1nnc(N2CCCC(C(=O)Nc3cc(F)ccc3F)C2)c2nn(-c3ccccc3)c(C)c12 (stereo not given)	.	-5%	-20%[46.1 µM]	1%	-7%	-6.7%	9%	-10%&-1%
COc1ccc(-c2[nH]ncc2-c2csc(C)n2)c(O)c1	.	5%	.	3%	16%	-2.9%	-5%	-10%
O=C(CNCC1CCCO1)N1CCN(S(=O)(=O)c2ccc3ccccc3c2)CC1 (stereo not given)	0%[46.1 µM]	1%	-8%	19%	-7%	9.1%	5%	-17%
CCOc1ccc(C(=O)N[C@H](C(=O)Nc2cccc(S(=O)(=O)N3CCOCC3)c2)C(C)C)cc1	15%	.	-12%[46.1 µM]	2%	3%	.	.	6%
CN(C)/C=C(\C#N)S(=O)(=O)c1ccccc1	.	6%	.	11%	13%	.	.	4%
NC(=O)CC(NC(=O)c1ccc(Br)cc1)c1ccc(N2CCN(c3ccccn3)CC2)c([N+](=O)[O-])c1 (stereo not given)	.	-30%	.	1%	-22%	.	.	?
CCn1cc(CN2CCC(n3nccc3NC(=O)C3CCCC3)CC2)cn1	15%[46.1 µM]	2%	9%[46.1 µM]	3%	7%	.	.	1%
CC1Cc2cc(/C=C3/SC(=S)N(C)C3=O)ccc2O1 (stereo not given)	7%[46.1 µM]	6%	1%[46.1 µM]	0%	-1%	.	.	20%
Cc1noc(/C=C/N(C)C)c1S(=O)(=O)N1CCCC(C(=O)NCc2ccco2)C1 (stereo not given)	.	?	.	9%	7%	-6.0%	14%	-8%
S=c1[nH]nc(-c2ccccc2Cl)n1CC1CCCO1 (stereo not given)	-6%	?	-5%	2%	3%	7.9%	2%	4%
CCOc1ccc(NC(=O)CCN2CCN(c3ccccc3)CC2)cc1	?	-2%	?	2%	-16%	5.5%	-5%	-4%
COc1ccc(-c2nc(N)nc(C)c2-c2ccc(Cl)cc2)c(O)c1	.	-5%	.	-4%	1%	.	.	?
N#Cc1cc(-c2ccccc2)oc1/N=C/c1ccccc1O	-4%[46.1 µM]	-6%	2%	-13%	-11%	-15%	2%	21%
O=[N+]([O-])c1ccccc1OCCNCc1ccccc1	.	-15%	.	5%	-2%	.	.	37%[activator]
C=CCn1c(O)c(C(CC)=Nc2cc(OC)ccc2OC)c(=O)[nH]c1=O	?	7%	1%	-4%	5%	4.4%	-6%	-12%
CCc1nn(C)c(N)c1C	.	-3%	.	0%	-4%	.	.	0%

Overlap with the part before: 2 entries, then new ones.
SMILES	Marburg entry inh	NS1 inh	Lassa entry inh	SARS PLP yeast	RE007 growth inh	Cruzain Triton	Cruzain inh noDet	2A StopGo
C=CCn1c(O)c(C(CC)=Nc2cc(OC)ccc2OC)c(=O)[nH]c1=O	?	7%	1%	-4%	5%	4.4%	-6%	-12%
CCc1nn(C)c(N)c1C	.	-3%	.	0%	-4%	.	.	0%
COC(=O)C1=C(C)NC(C)=C(C(=O)OC)C1c1cc2ccc(C)cc2[nH]c1=O	-25%	2%	-19%	0%	-1%	-4.8%	-8%	?
CCOC(=O)c1ccc(NC(=O)CSc2nnc(C)n2-c2ccccc2)cc1	-10%	-29%	-18%	2%	-1%	1.1%	?	-24%
Nc1nnn(CC(=O)N/N=C/c2ccco2)n1	.	3%	.	0%	8%	.	.	3%
Cc1ccc(-n2ncc3c2CCCC3NC(=O)CCN2CCCC2=O)cc1C (stereo not given)	.	0%	.	1%	0%	.	.	-14%
Nc1nc2c(cnn2CCc2ccccc2)c2nc(-c3ccco3)nn12	-4%&-4%	.	?	.	.	-2.0%	-5%	19%
O=C1CCN(C(=O)Nc2ccccc2)N1	17%	-12%	2%	4%	-2%	12%	4%	17%
COc1ccc(NC(=O)NCCN2CCN(c3cc(OC)ccc3OC)CC2)cc1	.	14%	.	22%	-4%	.	.	-18%
O=C(c1ccc2c(c1)OCO2)N(CC1CCCO1)C1(C(=O)NC2CCCCC2)CCCCC1 (stereo not given)	?	-9%	-22%	-6%	0%	3.6%	-10%	1%
C=CCn1c(-c2ccncc2)n[nH]c1=S	-19%[46.1 µM]	2%	27%[46.1 µM]	2%	-6%	.	.	-9%
CCN(CC(=O)Nc1ccccc1OC)C(=O)CSCC(=O)Nc1cccc(C)c1	3%[46.1 µM]	.	-2%	.	-14%	.	.	-4%
O=C(CN1CCOCC1)NCCNC(=O)CN1CCOCC1	0%	14%	11%	-7%	-5%	2.0%	-1%	-25%
CCOc1ccc(C(=O)Nc2cccc(-c3cc4ccccc4oc3=O)c2)cc1[N+](=O)[O-]	-14%	6%	-13%	-1%	15%	1.5%	?	-25%
CCOC(=O)c1c(-c2ccc(C)cc2)csc1NC(=O)c1cc(=O)c2cc(Cl)ccc2o1	32%[46.1 µM]	.	13%[46.1 µM]	.	.	2.6%	11%	-5%
CN(C)C(=O)N1CCN(C(=O)N(C)C)CC1	6%	3%	-4%	0%	-5%	3.4%	16%	1%
COc1cc(OC)cc(C(=O)Nc2ccc3nc4n(c(=O)c3c2)CCCC4)c1	.	-1%	.	-2%	14%	.	.	34%[activator]
CCOC(=O)CSc1ncnc2c1cnn2-c1ccccc1	-5%	-13%	0%	-6%	-8%	-7.0%	0%	2%
CC1CCCC(C)N1C(=O)Cn1c(SCC(=O)Nc2ccc3c(c2)OCO3)nc2ccccc21 (stereo not given)	?	-2%	-13%	2%	3%	-4.0%	-5%	9%
COc1ccc(NS(=O)(=O)c2c(C)nc3scc(C)n3c2=O)cc1	-15%[46.1 µM]	.	18%[46.1 µM]	.	.	-5.5%	-10%	3%
O=C(NCC1CCCO1)c1ccc2c(=O)n(CC3CCCO3)c(SCC(=O)N3CCCC3)nc2c1 (stereo not given)	3%[46.1 µM]	.	.	0%	-16%	.	.	12%
CCOC(=O)N1CCN(C(=O)CN(C2CCCCC2)S(=O)(=O)c2ccc(Cl)cc2)CC1	8%	-6%	?	3%	-6%	0.2%	?	-2%
C=Cc1ccc(CSc2nnc(C)n3c2cc2occc23)cc1	.	.	-19%[46.1 µM]	.	.	-6.4%	?	40%[activator]
Cc1ccc(OCCn2c(C3CC(=O)N(Cc4ccccc4)C3)nc3ccccc32)cc1 (stereo not given)	3%	-14%	.	-12%	3%	-12%	?	12%
CCOC(=O)N1CCN(Cc2nc3cc(NC(=O)c4cccc(C)c4)ccc3n2C(C)C)CC1	.	.	-4%[46.1 µM]	.	.	-4.6%	?	?
O=C(CSc1nc2c(oc3ccccc32)c(=O)n1CC1CCCO1)NCc1ccccc1 (stereo not given)	11%	.	4%	-11%	-9%	.	.	-7%
O=C(COc1ccc(Br)cc1)Nc1ccc(C(=O)OC2CCCCC2)cc1	.	.	3%[46.1 µM]	.	.	-2.7%	9%	-5%
Cc1onc(-c2c(F)cccc2Cl)c1C(=O)c1ccccc1O	-3%[46.1 µM]	-11%	?	-1%	7%	.	.	-16%
Cc1cccc(C(C)C)c1NC(=O)CSc1nncn1C	17%	3%	-7%	9%	-2%	1.2%	-2%	0%
COc1ccc([N+](=O)[O-])cc1NC(=O)COC(=O)c1ccccn1	?	.	-4%	-2%	-1%	.	.	13%
CCOc1cc(NC(=O)c2ccco2)c(OCC)cc1NC(=O)CCc1ccccc1OC	-24%	1%	-19%	2%	-9%	-1.8%	4%	?
CCc1cccc(CC)c1-n1c(SCc2cc(=O)n3ccsc3n2)nnc1-c1cccnc1	0%	-4%	-24%	5%	11%	1.2%	-3%	-13%
Cc1ccsc1C(=O)N(c1nc2ccccc2s1)c1c(C)cccc1C	?	7%	10%	2%	-26%	-3.3%	?	?
Cc1ccc(C)c(OCCC(=O)NNC(=O)c2ccncc2)c1	-2%[46.1 µM]	.	15%	2%	27%	.	.	-4%

Of the compounds above, 8 have an aryl thioether with sulfur outside any ring:
SMILES	Marburg entry inh	NS1 inh	Lassa entry inh	SARS PLP yeast	RE007 growth inh	Cruzain Triton	Cruzain inh noDet	2A StopGo
CCOC(=O)c1ccc(NC(=O)CSc2nnc(C)n2-c2ccccc2)cc1	-10%	-29%	-18%	2%	-1%	1.1%	?	-24%
CCOC(=O)CSc1ncnc2c1cnn2-c1ccccc1	-5%	-13%	0%	-6%	-8%	-7.0%	0%	2%
CC1CCCC(C)N1C(=O)Cn1c(SCC(=O)Nc2ccc3c(c2)OCO3)nc2ccccc21 (stereo not given)	?	-2%	-13%	2%	3%	-4.0%	-5%	9%
O=C(NCC1CCCO1)c1ccc2c(=O)n(CC3CCCO3)c(SCC(=O)N3CCCC3)nc2c1 (stereo not given)	3%[46.1 µM]	.	.	0%	-16%	.	.	12%
C=Cc1ccc(CSc2nnc(C)n3c2cc2occc23)cc1	.	.	-19%[46.1 µM]	.	.	-6.4%	?	40%[activator]
O=C(CSc1nc2c(oc3ccccc32)c(=O)n1CC1CCCO1)NCc1ccccc1 (stereo not given)	11%	.	4%	-11%	-9%	.	.	-7%
Cc1cccc(C(C)C)c1NC(=O)CSc1nncn1C	17%	3%	-7%	9%	-2%	1.2%	-2%	0%
CCc1cccc(CC)c1-n1c(SCc2cc(=O)n3ccsc3n2)nnc1-c1cccnc1	0%	-4%	-24%	5%	11%	1.2%	-3%	-13%
